rRNA inh HTS = inhibitors of bacterial rRNA selective over humanized ribosomes. 350,000 compounds, 1.6% hits. AID 720706. E. coli WT GFP vs humanized-ribosome RFP mutants, fluorescence, 24 h; stronger effect = lower value; DMSO median 0, no signal -100. GFP signal change (wild-type ribosome), % (test concentration not listed);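 active means significant combined selectivity score with lowered wild-type GFP, culture density cut under 30%, mutant RFP and density less affected; inactive means any of these conditions unmet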; further: one replicate is shown; some compounds called inactive have numbers as strong as hits
FGF22 binding = binders of recombinant human FGF22 by thermal shift. SYPRO orange fluorescence; percent of sucrose octasulfate shift, DMSO zero. 340,000 compounds, 1.5% hits. Q9HCT0. calls only at 9.99 µM;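 active means melting point raised past a set limit in the mean and every replicate; three in four hits are not shown here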
Target sequence (Q9HCT0 whole entry, looked up): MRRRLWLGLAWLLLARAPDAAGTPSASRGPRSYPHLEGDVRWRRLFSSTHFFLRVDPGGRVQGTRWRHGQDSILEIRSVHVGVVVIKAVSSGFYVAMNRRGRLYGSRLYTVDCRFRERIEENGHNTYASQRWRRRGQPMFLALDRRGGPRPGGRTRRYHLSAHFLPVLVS
Ecoli growth = blocks Escherichia coli growth; OD600, 23 h; stronger effect = lower value; OD600 absorbance (concentration not given with the values); 330,000 compounds, 0.21% hits;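 active means OD600 absorbance below the run mean of sample wells minus 3.6 SD, in any replicate, cut at about 0.56 in these data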;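 further: stock transfer was 300 nL into about 60 µL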
HNF4A DNA FP = change in binding of human HNF4 alpha to DNA; P41235; HNF4a-FITC DNA binding, fluorescence polarization, 1 h; activity change, % at 10 µM; 360,000 compounds, 0.3% hits; AID 1224865; in the data active means activity change above about 30%, passing the limit was not always enough;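 further: controls were the assay level and a saturating level of protein; the project sought stronger binding though the title names inhibitors; some compounds called inactive have numbers as strong as hits; positive values seem to mean higher polarization but the record does not say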
Target sequence (P41235 whole entry, looked up): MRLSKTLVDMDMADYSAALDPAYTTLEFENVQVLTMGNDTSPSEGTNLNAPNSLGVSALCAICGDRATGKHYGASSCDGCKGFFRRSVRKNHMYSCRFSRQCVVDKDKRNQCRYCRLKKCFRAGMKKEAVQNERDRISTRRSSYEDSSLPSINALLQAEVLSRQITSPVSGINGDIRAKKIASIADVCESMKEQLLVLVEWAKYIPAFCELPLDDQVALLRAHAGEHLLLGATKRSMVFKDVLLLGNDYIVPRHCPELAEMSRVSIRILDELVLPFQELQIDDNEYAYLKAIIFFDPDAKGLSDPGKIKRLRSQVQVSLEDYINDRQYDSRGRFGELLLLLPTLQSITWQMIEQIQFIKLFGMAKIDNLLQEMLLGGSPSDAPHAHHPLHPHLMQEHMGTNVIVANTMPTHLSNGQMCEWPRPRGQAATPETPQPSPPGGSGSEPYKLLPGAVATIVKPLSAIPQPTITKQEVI
ALR inh = inhibitors of human sulfhydryl oxidase ALR | purified ALR, DTT oxidation, H2O2 HRP-luminol luminescence | inhibition, % (no concentration beside the values) | 290,000 compounds, 3.8% hits | AID 485317;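 active means mean and each replicate at 75% or more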;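 further: stock transfer was 7.5 nL into about 7.5 µL; 0% = neutral wells and 100% = wells with inactivated enzyme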
UCH37 DUB inh = human UCH37 deubiquitinating enzyme inhibition; Q9Y5K5; 330,000 compounds, 0.33% hits; inhibition, % (concentration not given with the values); AID 588478; purified proteasome/UCH37, Ub-AMC cleavage fluorescence;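 active means mean of two replicates above 20%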;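 further: 0% = compound-free wells with enzyme and 100% = wells lacking proteasome; stock transfer was 100 nL into about 20 µL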
Target sequence (Q9Y5K5 whole entry, looked up): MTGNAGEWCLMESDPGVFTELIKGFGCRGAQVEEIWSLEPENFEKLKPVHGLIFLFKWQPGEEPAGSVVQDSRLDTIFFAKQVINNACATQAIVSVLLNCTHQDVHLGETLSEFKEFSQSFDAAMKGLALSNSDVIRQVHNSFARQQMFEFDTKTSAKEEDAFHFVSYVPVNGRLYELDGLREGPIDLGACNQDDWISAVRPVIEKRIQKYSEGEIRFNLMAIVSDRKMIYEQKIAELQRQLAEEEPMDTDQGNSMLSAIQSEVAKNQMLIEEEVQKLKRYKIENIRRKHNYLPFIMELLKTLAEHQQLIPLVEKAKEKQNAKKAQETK
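Material: Human UCH37 enzyme supplied as purified proteasome complex | Schedule: 30 min compound-proteasome preincubation then 25 min substrate reaction, room temperature | Detection: AMC fluorescence from Ub-AMC cleavage, excitation 355 nm, emission 460 nm | Benchmarks: Wells without proteasome as full block, compound-free enzyme plus substrate as uninhibited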
Beta2AR agonist = agonists of human beta-2 adrenergic receptor inducing internalization | P07550 | Am2.2-beta2AR cells, FAP receptor internalization, flow cytometry; reference of the scale not given here | response, % (no concentration beside the values) | 340,000 compounds, 0.43% hits | AID 504454;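 active means response above a set limit, near 3 SD of response in nonfluorescent compounds, cut at about 42% in these data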;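 further: stock transfer was 100 nL into about 11 µL; a reference agonist was the positive control; negative values mostly stem from fluorescent compounds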
rRNA inh HTS OD600 = further read-out of rRNA inh HTS, marked with its call; OD600 change, %; measured here: OD600 growth;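 optical density of the mix in the first replicate; 0 = DMSO median and -100 = no signal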
rRNA inh HTS RFP = second read-out of rRNA inh HTS, no call of its own (marks repeat the call); RFP signal change, %; measured here: RFP humanized mutant strains;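 first replicate; 0 = DMSO median and -100 = no signal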
* = called active by the depositor; i = inactive; / = no result given. A portion of the library (hit frequency here may not be typical).

entry	rRNA inh HTS OD600	rRNA inh HTS RFP	Beta2AR agonist	HNF4A DNA FP	UCH37 DUB inh	rRNA inh HTS	FGF22 binding	Ecoli growth	ALR inh	SMILES
1	/	/	8	-0.4	1.3	/	/	0.74	27	N#Cc1nc(COc2cccc(Cl)c2)oc1NCc1ccncc1
2	12	0.1	4	-2.1	2.3	6	i	0.7	/	CC[C@@]1(C(=O)OC)N[C@H](CN(C)C(=O)Nc2ccccc2)[C@@H]2C(=O)N(C)C(=O)[C@@H]21
3	/	/	12	0.2	-0.4	/	/	0.78	/	CCOc1ccc(C(=O)NC(=S)Nc2ccc(N3CCC(C)CC3)cc2)cc1[N+](=O)[O-]
4	/	/	4	3.8	4.8	/	/	0.74	-6	Cc1ccc(NC(=O)c2ccc(S(=O)(=O)N3CCCC3)cc2)cc1
5	15	0.4	-1	0.4	/	14	i	/	-15	COC(=O)CC1C(=O)NCCN1C(=O)c1ccc(S(=O)(=O)N2CCOCC2)cc1 (stereo not drawn)
6	/	/	-9	6.5	-18	/	/	0.73	6	Cc1cc(C)c(C#N)c(SCc2nc3ccccc3[nH]2)n1
7	0	1.2	1	1.4	5.1	9	i	0.68	-8	CCCNC(=O)NC(=O)COC(=O)/C=C/c1cc(Br)ccc1F
8	1	0.5	-4	1.6	5.1	2	i	0.7	-7	CCC1Oc2ccccc2N(CC(=O)NC2CCCCC2)C1=O (stereo not drawn)
9	-2	2.4	/	-0.9	/	12	i	/	/	NCc1csc(Nc2nncc3ccccc23)n1
10	-5	-5.4	-13	-2.5	3.6	0	i	0.71	1	Cc1cc(-c2nnc(CCC(=O)NC(C)c3cccc4ccccc34)o2)no1 (stereo not drawn)
11	-1	12	3	0.8	-0.9	4	i	/	-3	CCCCCC(=O)N1CC2(CC(c3cccc(NC(=O)CC(c4ccccc4)c4ccccc4)c3)=NO2)C[C@@H]1C(N)=O (stereo partly drawn)
12	6	0.6	1	-7.2	0.3	9	i	0.63	1	COc1ccccc1C(=O)NCCC(=O)NC1CCCCC1C (stereo not drawn)
13	6	9.5	9	2.9	2.4	6	i	0.75	-3	Cc1ccc(NC(=S)NCc2ccc3[nH]c4c(c3c2)CCCC4)cc1
14	-36	-13	1	4.5	3.8	-41	i	0.64	26	O=c1c2ccccc2c(-c2n[nH]c(=S)o2)nn1Cc1ccccc1
15	/	/	10	1.3	/	/	/	/	-21	C(=N\N=C\c1cccnc1)/c1cccnc1
16	/	/	-11	2.9	-0.9	/	/	0.7	-8	CCOc1ccc(Nc2oc(-c3ccco3)nc2C#N)cc1
17	13	-1.0	-8	-1.9	-50	17	i	0.72	-6	O=C(NCc1cccs1)c1cccn2c(=O)c3sccc3nc12
18	-5	-12	0	-1.6	0.8	-17	i	0.7	-3	CCOc1ccc2nc(NC(=O)C3CCCO3)sc2c1 (stereo not drawn)
19	/	/	-1	1.8	5.5	/	i	0.71	/	O=C(COC(=O)c1cc(Br)ccc1Cl)NC1CC1
20	8	12	/	144	13	9	i	0.71	/	CCCNC(=O)Cn1c(=O)/c(=C/c2ccc(-c3ccc([N+](=O)[O-])cc3)o2)s/c1=C\C(=O)C(C)(C)C
21	/	/	11	1.8	-0.2	/	/	0.72	2	CCC(C)C(NC(=O)C(N)CC(C)C)C(=O)NC(CCC(=O)OCc1ccccc1)C(N)=O (stereo not drawn)
22	7	0.0	8	-1.5	3.4	10	/	0.75	-14	CC(C)Oc1ccc(C(=O)OC(C)C(=O)Nc2nc(-c3cccc([N+](=O)[O-])c3)cs2)cc1 (stereo not drawn)
23	/	/	-8	4.1	1.0	/	/	0.66	24	CCc1nnc(SCc2ccc(OC)c(Br)c2)n1N
24	-1	0.1	10	-3.5	5.4	1	i	0.72	-18	C=CCNC(=O)NC(=O)COC(=O)c1ccccc1Sc1ccc(C(F)(F)F)cc1[N+](=O)[O-]
25	/	/	-1	-0.6	1.3	/	i	0.62	3	Cc1ccc(NC(=O)COc2ccccc2C(=O)NCc2ccccc2)cc1
26	12	-1.2	/	4.8	/	5	i	/	/	COc1ccc(C2=Nc3ccccc3N(C(=O)c3ccncc3)C2C(=O)NC(C)(C)C)cc1 (stereo not drawn)
27	/	/	1	-1.8	0.8	/	/	0.73	-1	COc1cc(/C=C/C(=O)N(C)c2ccccc2C(=O)O)cc(OC)c1OC
28	-12	-3.6	/	1.3	/	-20	i	/	/	Cc1ccc(S(=O)(=O)NCc2cccc([N+](=O)[O-])c2)cc1
29	10	-0.9	4	1.4	2.6	2	i	0.68	/	Cc1ccc(NCC(=O)N2CCN(S(=O)(=O)c3ccccc3)CC2)cc1F
30	/	/	-2	2.6	3.9	/	/	0.77	-5	COc1ccc(OC)c(C(c2nnnn2Cc2ccccc2)N2CCC(C(N)=O)CC2)c1 (stereo not drawn)
31	-16	-1.2	-3	0.3	0.3	-12	i	0.71	/	O=C(Cn1cnc2c(NCc3ccccc3)ncnc21)NCCCc1ccccc1
32	/	/	-7	-2.7	4.9	/	/	0.68	99*	S=c1nc(-c2ccco2)[nH][nH]1
33	2	-3.0	2	-0.5	2.2	4	i	0.68	2	Cc1ccc2c(c1)N(CC(=O)NCC1CCCO1)C(=O)C(C(C)C)O2 (stereo not drawn)
34	5	-2.8	-7	1.3	/	3	i	/	4	COc1cc(CC(C#N)(CO)c2nc3ccccc3[nH]2)ccc1OC(F)F (stereo not drawn)
35	6	0.6	-2	3.4	3.2	9	i	0.8	36	COc1ccc(N2CCN(CCCNS(=O)(=O)c3ccc4c(c3)oc(=O)n4C)CC2)cc1
36	9	-1.2	9	0.0	1.2	-1	i	0.69	-14	Nc1ccc2c(c1)C(=O)c1ccccc1C2=O
37	12	-1.1	-1	-6.4	-1.4	8	i	0.73	-1	Cc1ccccc1CN1CCNC(=O)C1CC(=O)NCCN1CCCCC1=O (stereo not drawn)
38	8	-4.7	-4	1.1	/	3	i	/	/	CC(C)C[C@@H](CNCC(=O)[C@H](CC(C)C)NC(=O)c1[nH]cnc1C(=O)N[C@H](CN)CC(C)C)NC(=O)c1nc[nH]c1C(=O)N[C@@H](Cc1ccccc1)C(=O)O
39	10	-4.4	3	2.3	/	-12	/	/	58	Cc1cccc(NC(=O)CCC(=O)N/N=C/c2ccc(O)cc2O)c1
40	-4	2.3	2	2.3	-3.3	1	i	0.67	-19	COc1cc2c(cc1OC)CN(C(=O)C(C)(C)C)CC2
41	10	0.7	3	-0.2	-58	16	i	0.69	/	COc1ccc(Cl)cc1NC(=O)c1cc(-c2ccccc2)on1
42	/	/	0	-0.2	2.5	/	/	0.72	-13	O=C(CN1C(=O)CSC1=O)Nc1ccc(C(=O)O)cc1
43	/	/	5	1.3	0.4	/	/	0.68	-4	COC(=O)C(C)N(C#N)c1nc(C)cc(C)n1 (stereo not drawn)
44	5	0.2	10	-0.5	2.2	2	i	0.69	6	NC(=O)c1ccsc1NC(=O)COC(=O)c1ccccn1
45	1	2.0	/	-3.8	/	4	i	/	/	Cn1c(=O)c2cc(NC(=O)NCc3ccc(F)cc3)ccc2n1Cc1cccc(C(F)(F)F)c1
46	6	0.9	-6	-0.6	2.7	11	i	0.77	-8	CC(=O)NC(CCS(C)(=O)=O)C(=O)Nc1ccc(Oc2ccccc2)cc1 (stereo not drawn)
47	13	-12	-5	1.8	-0.2	10	i	0.69	/	Cc1ccccc1-c1nc2c(s1)CCc1onc(-c3ccc(Cl)cc3)c1-2
48	20	7.3	7	5.3	1.5	25	i	0.72	-15	CCOC(=O)c1ccc(N2CCN(c3ccccc3F)CC2)c(NC(=O)Nc2cccc(OC)c2)c1
49	-2	6.2	-18	-2.3	/	-3	i	/	-8	C/C(=N\NC(=O)Cc1ccccc1)c1cccs1
50	-10	0.2	-5	-0.5	6.4	-1	i	0.69	-1	Cc1cccc(C)c1NC(=O)CN(C)C(=O)C(c1ccccc1)c1ccccc1
51	5	1.2	0	4.1	2.0	2	i	0.73	-19	Cc1nnc(NC(=O)c2ccco2)s1
52	22	18	0	1.5	4.1	9	i	0.7	/	O=C(Nc1ccc(Oc2ccc(NC(=O)Nc3ccccc3Cl)cc2)cc1)Nc1ccccc1Cl
53	9	-3.3	3	2.2	5.1	3	i	0.64	2	CN(C)S(=O)(=O)c1ccc(N2CCCC2)c(C(=O)NC2CCCCC2)c1
54	/	/	-1	-0.4	1.9	/	/	0.73	4	O=C(O)CCCC(=O)Nc1ccn(-c2ccccc2)n1
55	-27	4.7	5	4.0	/	-26	i	/	-3	O=C(N/N=C/c1ccncc1)c1cc(-c2ccc(Br)s2)[nH]n1
56	/	/	-5	0.9	3.8	/	/	0.7	/	COc1cc2c(C(=O)N3CCN(c4cccc(Cl)c4)CC3)cn(C)c(=O)c2cc1OC
57	3	0.3	-7	1.7	5.0	14	i	0.66	1	CCc1nnc(NC(=O)CCC2CCCCC2)s1
58	/	/	-5	1.4	/	/	/	/	-5	O=C(COc1ccc2ccccc2c1)N/N=C/C1CC=CCC1 (stereo not drawn)

Structural class: the compounds so far containing an NH in an aromatic ring
entry	rRNA inh HTS OD600	rRNA inh HTS RFP	Beta2AR agonist	HNF4A DNA FP	UCH37 DUB inh	rRNA inh HTS	FGF22 binding	Ecoli growth	ALR inh	SMILES
6	/	/	-9	6.5	-18	/	/	0.73	6	Cc1cc(C)c(C#N)c(SCc2nc3ccccc3[nH]2)n1
13	6	9.5	9	2.9	2.4	6	i	0.75	-3	Cc1ccc(NC(=S)NCc2ccc3[nH]c4c(c3c2)CCCC4)cc1
14	-36	-13	1	4.5	3.8	-41	i	0.64	26	O=c1c2ccccc2c(-c2n[nH]c(=S)o2)nn1Cc1ccccc1
32	/	/	-7	-2.7	4.9	/	/	0.68	99*	S=c1nc(-c2ccco2)[nH][nH]1
34	5	-2.8	-7	1.3	/	3	i	/	4	COc1cc(CC(C#N)(CO)c2nc3ccccc3[nH]2)ccc1OC(F)F (stereo not drawn)
38	8	-4.7	-4	1.1	/	3	i	/	/	CC(C)C[C@@H](CNCC(=O)[C@H](CC(C)C)NC(=O)c1[nH]cnc1C(=O)N[C@H](CN)CC(C)C)NC(=O)c1nc[nH]c1C(=O)N[C@@H](Cc1ccccc1)C(=O)O
55	-27	4.7	5	4.0	/	-26	i	/	-3	O=C(N/N=C/c1ccncc1)c1cc(-c2ccc(Br)s2)[nH]n1
